High-throughput results from PubChem BioAssay.
VDR inh: Inhibitors of the vitamin D receptor (VDR): qHTS; actives 0.93% (n = 400,000); VDR-SRC2-3 peptide fluorescence polarization, 2 h; Vitamin D3 receptor (Homo sapiens), P11473; Potency, µM, for inactives: max response, negative = inhibition, most hits filed as inhibitors; active = well fitted inhibition curve with a large enough effect; inconclusive = small, poorly fitted or top-dose-only effect, or another doubt; inactive = no such curve, though single readings can be large or run the other way; note: series mostly up to about 120 µM
Target sequence (P11473 whole entry, looked up): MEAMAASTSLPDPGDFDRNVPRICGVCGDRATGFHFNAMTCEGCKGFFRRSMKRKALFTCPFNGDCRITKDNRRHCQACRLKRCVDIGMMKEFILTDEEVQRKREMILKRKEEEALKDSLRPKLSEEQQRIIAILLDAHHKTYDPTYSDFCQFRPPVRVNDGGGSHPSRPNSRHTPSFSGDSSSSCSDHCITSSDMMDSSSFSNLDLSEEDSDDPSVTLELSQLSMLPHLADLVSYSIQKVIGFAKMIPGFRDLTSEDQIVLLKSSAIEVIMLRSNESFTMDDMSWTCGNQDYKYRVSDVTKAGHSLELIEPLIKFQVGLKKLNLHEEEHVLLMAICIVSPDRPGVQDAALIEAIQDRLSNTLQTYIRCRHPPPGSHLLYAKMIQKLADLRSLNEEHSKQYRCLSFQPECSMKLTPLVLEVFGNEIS
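Signal is fluorescence polarization, reporting how far test compounds block the interaction of VDR with the SRC2-3 coregulator peptide after a 2 h room-temperature incubation.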
Numbers without * were called inactive; ? = inconclusive; & = joins results of further samples; [ ] = remark or other dose. % is set by controls: 0 for no effect and ±100 for the full control effect; potency is the fitted concentration of half-maximal effect. Not all compounds are listed; count on the stated rates, not on these rows.

SMILES	VDR inh
COc1ccc(NC(=O)CCOc2ccccc2C)cc1S(=O)(=O)N1CCCCC1	14%
CCC(=O)c1ccc(OCC(=O)OCC(=O)N2CCN(c3ccc(OC)cc3)CC2)cc1	12%
CN(c1ccccc1)c1nc(N2CCCC2)nc(-n2ccnc2)n1	4%
COC(=O)c1c(NC(=O)CSc2nnnn2-c2ccccc2)sc2c1CCC(C(C)(C)C)C2 (centres undefined)	-7%
COc1ccc(S(=O)(=O)N2CCN3CCCC3C2)cc1 (centres undefined)	18%
CCOC(=O)CNC(=O)N1CCN(S(=O)(=O)c2ccc3c(ccn3C)c2)CC1	-1%
O=[N+]([O-])c1cc(Cl)ccc1N1CCN(c2cccc(C(F)(F)F)c2)CC1	-4%
Cc1cc(C(=O)OCC(=O)N2C(C)CCCC2C)c2ccccc2n1 (centres undefined)	?
CNC(=O)C1CCN(Cc2cc3ccccc3n2Cc2ccccc2C)CC1	5%
CN(C)S(=O)(=O)c1ccc(NC(=O)COc2ncnc3c2cnn3-c2ccccc2)cc1	-9%
CN1C(=O)C2(SCC(=O)N2c2cccc(C(F)(F)F)c2)c2ccccc21 (centres undefined)	5%
c1ccc(CNC2=NCCC2)nc1	3%
CCN(Cc1ccccc1)S(=O)(=O)c1ccc(C(=O)N2CCN(c3nc4ccccc4s3)CC2)cc1	-17%
COc1ccc(CCNC(=S)N2CCN(S(=O)(=O)c3ccccc3)CC2)cc1	-12%
CCOC(=O)c1c(-c2ccccc2)oc2ccc(N(C(C)=O)S(=O)(=O)c3ccc(CC)cc3)cc12	-12%
CC(C(=O)NC1CCCC1)N1CCN(Cc2ccccc2)CC1 (centres undefined)	7%
Cn1c(Cn2c(=O)sc3ccccc32)nnc1SCC(=O)NC1CCCCC1	2%
Cn1nnc2cc(C(=O)N3CCN(c4ccccc4)CC3)ccc21	-11%
CCOc1cc2[nH]c(=S)n(CC3CCCO3)c(=O)c2cc1OCC (centres undefined)	-4%
O=C(OCC1OC(n2ccc(=O)[nH]c2=O)C2OC12)c1ccccc1 (centres undefined)	-1%
Cc1c(NC(=O)C(C)OC(=O)c2cccc([N+](=O)[O-])c2)c(=O)n(-c2ccccc2)n1C (centres undefined)	-12%
O=C(CCC(=O)Nc1ccc(F)cc1)N/N=C/c1ccccc1O	-10%
Cc1ccc(-c2nc(-c3cc4cc(Cl)ccc4oc3=O)sc2C)cc1	-10%
COc1cc2nc(CN3CCC(C(O)(c4ccccc4)c4ccccc4)CC3)[nH]c(=O)c2cc1OC	-11%
COc1ccc(CCN(CC(=O)NCc2ccc(F)cc2)C(=O)c2snc(C(N)=O)c2N)cc1OC	23%

3 entries already listed, arranged by formula weight, largest number first.
SMILES	VDR inh
COc1ccc(NC(=O)CCOc2ccccc2C)cc1S(=O)(=O)N1CCCCC1	14%
COc1ccc(CCNC(=S)N2CCN(S(=O)(=O)c3ccccc3)CC2)cc1	-12%
O=C(CCC(=O)Nc1ccc(F)cc1)N/N=C/c1ccccc1O	-10%

The listing picks up; the three compounds before the break are reprinted first.
SMILES	VDR inh
Cc1ccc(-c2nc(-c3cc4cc(Cl)ccc4oc3=O)sc2C)cc1	-10%
COc1cc2nc(CN3CCC(C(O)(c4ccccc4)c4ccccc4)CC3)[nH]c(=O)c2cc1OC	-11%
COc1ccc(CCN(CC(=O)NCc2ccc(F)cc2)C(=O)c2snc(C(N)=O)c2N)cc1OC	23%
O=C(O)COc1ccc2c(-c3ccccc3)cc(=O)oc2c1	27%
CCCC1Nc2ccc(C(=O)O)cc2C2C=CCC12 (centres undefined)	-37%
COc1cccc(-c2nc(CS(=O)(=O)CC(=O)N3CCc4ccccc43)c(C)o2)c1	2%
COc1ccc(NC(=O)c2ccc(-c3nc(CSc4ccccc4)c(C)o3)cc2)c(OC)c1	23%
COc1ccc(/C=C/C(=O)N(c2ccccn2)C2CCCCC2)cc1OC	5%
O=C(NCNC(=O)c1ccccc1)c1ccccc1	6%
O=C(NC(=S)NNC(=O)c1ccccc1O)c1cccnc1	-3%
CC1(C)C/C(=N/Nc2ccc([N+](=O)[O-])cc2[N+](=O)[O-])C(C)(C)O1	-11%
COc1ccc2oc(C(=O)C3CC3)c(N)c2c1	2%
Cc1ccc(OCC(=O)OCc2c(C)noc2C)cc1C	1%
Cc1ccccc1OCC(=O)NNC(=O)CSc1nc(N)cc(N)n1	-5%
COc1ccccc1-c1cncnc1-n1ccnc1	-13%
CCN(CC)CCn1c(-c2ccccc2)nc(=S)c2c1CC(C)(C)OC2	2%
O=S1(=O)CCOC[C@H](Cc2ccccc2)N1Cc1cccc(F)c1	-16%
COc1ccc(C2CC(=O)C3=C(C2)Nc2ccccc2N(C(=O)CCC(=O)O)C3c2ccc(F)cc2)cc1OC (centres undefined)	-5%
Cc1ccccc1C(=O)NNc1ccc([N+](=O)[O-])cc1	7%
N#Cc1nc(-c2ccco2)oc1N1CCOCC1	9%
CN(C(=O)COC(=O)/C=C/c1ccc2ccccc2n1)C1CCS(=O)(=O)C1 (centres undefined)	-13%
CCC(=O)Nc1ccccc1C(=O)OCc1ccc(C(=O)c2ccccc2)cc1	11%
CCc1nnc(NC(=O)CSc2nnc(-c3ccncc3)n2C)s1	0%
CN=C(Nc1ccc(Br)cc1)SC1CC(=O)N(c2ccc(OC)cc2)C1=O (centres undefined)	-3%
CN(C(=O)c1ccc(OC2CCN(CCc3ccccc3)CC2)cc1)C1CCOCC1	-5%
CC(C)CNc1ncnc2c1cnn2Cc1ccc(Cl)cc1	-5%
CCOC(=O)CC1=CC(=O)Nc2ccccc2N1	22%
CC(C)COC(=O)n1ccc(C(=O)N2CCCCC2)n1	11%
SMILES	VDR inh
COC(=O)C(C)N(C#N)c1nc(C)cc(C)n1 (centres undefined)	-11%
CC(=O)c1ccc2c3c(ccc(O)c13)CC2	15%
CCCNC(=O)c1cccc(NC(=O)C(C)C)c1	-12%
O=C(OCC(=O)N1CCCCCC1)c1cccc(Cl)c1	-10%
COc1ccc(NC2=C(c3ccc(OC)cc3)C(=O)c3ccccc32)cc1	17%
CCC(CC)COC(=O)C1=C(C)NC(=O)NC1c1ccccc1Br (centres undefined)	1%
CC12CCC(C(=O)N(CCCCN3CCN(Cc4ccccc4)CC3)C1=O)C2(C)C (centres undefined)	-7%
O=S(=O)(c1ccc(Cl)cc1)N1CCN(C2CCCCCC2)CC1	1%
COc1ccc(Cl)cc1NC(=O)CN(C)C1CCS(=O)(=O)C1 (centres undefined)	-9%
O=C(OC1CCOC1=O)c1ccc2ccccc2n1 (centres undefined)	16%
COc1ccc(Cc2nc3ccccc3[nH]2)cc1OC	-12%
COc1ccc(/C=N/n2c(-c3n[nH]c4c3CCC4)n[nH]c2=S)cc1OC	-16%
N#C/C(=C\c1ccccc1OCc1ccc(C(=O)O)cc1)c1ccccc1	0%
Cc1cc(C)cc(Oc2nc3ccccn3c(=O)c2/C=C(\C#N)C(=O)NC2CCS(=O)(=O)C2)c1 (centres undefined)	?
Cc1ccc(CNc2nc(-c3ccco3)nn2S(C)(=O)=O)cc1	4%
Cc1ccc(C(CNS(=O)(=O)c2cc(F)ccc2F)N2CCN(C)CC2)cc1 (centres undefined)	-12%
O=C(NC(=S)Nc1ccc(Cl)c(C(=O)O)c1)c1ccco1	-13%
COc1cc(OC)cc(-c2c(-c3cccs3)c3cc(Br)ccc3n2C)c1	14%
CCOc1cc(NS(=O)(=O)c2ccc(NC(C)=O)cc2)c(OCC)cc1NC(=O)c1cccs1	-6%
Cn1c(CNC(=O)CCNC(=O)c2ccc(Br)cc2)cc(=O)n(C)c1=O	-7%
Cc1c(OCC(=O)N2CCC(C(N)=O)CC2)ccc2c3c(c(=O)oc12)CCC3	5%
O=C(COCc1cc(-c2ccc3c(c2)OCO3)on1)NCc1ccccc1Cl	-9%
COc1cccc(Cc2nc3ccccc3nc2SCC(=O)N2CCCc3ccccc32)c1	11%
COc1cc(-c2nn3c(-c4cc(-c5ccccc5)n[nH]4)nnc3s2)cc(OC)c1OC	-13%
COc1ccc(OC)c(C(c2nnnn2CCC(C)C)N2CCN(C(=O)c3ccco3)CC2)c1 (centres undefined)	-13%

In a second layout: results already given.
COc1cc(-c2nn3c(-c4cc(-c5ccccc5)n[nH]4)nnc3s2)cc(OC)c1OC
- VDR inh: -13%

O=C(COCc1cc(-c2ccc3c(c2)OCO3)on1)NCc1ccccc1Cl
- VDR inh: -9%

Cc1c(OCC(=O)N2CCC(C(N)=O)CC2)ccc2c3c(c(=O)oc12)CCC3
- VDR inh: 5%

COc1cc(OC)cc(-c2c(-c3cccs3)c3cc(Br)ccc3n2C)c1
- VDR inh: 14%

The list goes on.
SMILES	VDR inh
Cc1nonc1NC(=O)N1CCCC1	-4%
Cc1ccccc1-n1cnc2cc(NCc3cccs3)ccc21	-22%
Cc1cccc(NC(=O)c2oc3ccc(S(=O)(=O)N4CCOCC4)cc3c2C)c1C	0%
Cc1ccc(CN2CCC(N3CC(C)OC(C)C3)CC2)cc1 (centres undefined)	5%
Cc1ccc(S(=O)(=O)Nc2ccc(NC(=O)Nc3ccc(F)cc3F)cc2)cc1	-7%
COCCNS(=O)(=O)c1cc(-c2nn3c(C)nnc3c3ccccc23)ccc1C	?
COc1ccc(C(C(=O)NC2CCCCC2)N(C(=O)c2sc(C)nc2C)c2ccc(OC)cc2)cc1 (centres undefined)	8%
COc1cccc(OC(=O)CSc2nnc(-c3ccccc3Br)o2)c1	?
Cc1cc(Cl)ccc1C(=O)C1CCCN(C(=O)c2cccnc2C)C1 (centres undefined)	-2%
CC1C(=O)N2CCCc3cc(S(=O)(=O)N4CCC(C(N)=O)CC4)cc1c32 (centres undefined)	16%&8%
COC(C/C=C\[C@@H](O)[C@H](C)OCc1ccccc1)OC	?
CCN(CC)CCOc1ccc2c(c1)C(=O)c1cc(OCCN(CC)CC)ccc1-2	16%
Cc1cc(C)c(Nc2ncnc3c2cnn3C)c(C)c1	0%
O=C(Nn1cnc2ccccc2c1=O)c1ccccc1F	39%[activator]
COc1cc(NC(=O)c2nc3ccccc3n(C)c2=O)cc(OC)c1OC	-1%
CC(=O)c1cccc(NC(=S)N2CCN(S(C)(=O)=O)CC2)c1	-2%
Cc1ccc(Nc2nc(NCCO)nc(N3CCCC3)n2)cc1	0%
Cc1ccc(CNC(=O)c2ccc(C#CC(C)(C)O)s2)cc1	-1%
CCC(CC)C(=O)Nc1nnc(-c2cccs2)s1	-27%
Cc1ccc2c(c1)Oc1ccc(NC(=O)CCCl)cc1C(=O)N2	1%
CCOC(=O)c1ccc(N2CCN(c3cc(C)ccc3C)CC2)c(NC(=O)Nc2ccc(CC)cc2)c1	19%
CN(C)c1ccc(C(=O)OCC(=O)Nc2ccc(S(N)(=O)=O)cc2)cc1	17%
Cc1cc(C(=O)CSc2nc(N)cc(=O)[nH]2)c(C)n1CCc1ccc(Cl)cc1	4%
Cc1ccc(CNC(=O)CSc2nnnn2C)cc1	13%
Cc1ccc(C(=O)c2cc([N+](=O)[O-])ccc2N2CCCCC2)cc1	-16%
SMILES	VDR inh
COc1ccc(NC(=O)c2ccc3c(c2)NC(=O)CO3)cc1OC	-11%
CN1CCN(C(=O)C(Cc2ccccc2)NS(=O)(=O)c2ccc3c(c2)CCC(=O)N3)CC1 (centres undefined)	-16%
Cn1c(=O)c2c(nc(N3CCOCC3)n2Cc2ccccc2)n(C)c1=O	-17%
O=C(Nc1ccccc1N1CCCC1)c1cccc(Cl)c1Cl	7%
O=C(COC(=O)C1CCN(S(=O)(=O)c2cccs2)CC1)NCc1ccccc1	11%
CC(=O)c1ccc(OC(C)C)c(CN2CCCCC2)c1	4%
CC(=O)Nc1cccc(NC(=O)c2c(-c3c(Cl)cccc3Cl)noc2C)c1	1%
C[C@@](Cc1ccccc1)(NC(=O)CN)c1ccccc1	0%
O=C(O)CC(c1cccc2ccccc12)N1Cc2ccccc2C1=O (centres undefined)	-3%
COCC(=O)Nc1ccc(Br)cc1	0%
CC(=O)Nc1ccc(S(=O)(=O)NCc2cccnc2)cc1	-14%
Cc1ccc(C)c(OCC(=O)Nc2cc(NC(=O)COc3cc(C)ccc3C)cc(C(=O)O)c2)c1	-21%
O=C1C2C3c4ccccc4C(c4ccccc43)C2C(=O)N1c1ccncc1 (centres undefined)	4%
COc1ccc(NC(=O)CCS(=O)(=O)c2ccc3nc(C)sc3c2)cc1Cl	1%
COc1ccc(NC(=O)CSc2nc(-c3ccc(OC)c(OC)c3)[nH]c2-c2ccc(C)cc2)cc1	13%
O=C(CSc1nc2ccccc2s1)N/N=C/c1ccccc1C(=O)O	-3%
CCCCCCCOC1(c2ccccc2)OC(=O)c2ccccc21 (centres undefined)	11%
COc1ccc(-c2cc(C(=O)N3CCN(C(c4ccccc4)c4ccccc4)CC3)no2)cc1OC	-14%
C=CCNc1nc(C(=O)OC(C)C(=O)c2ccc(C)cc2)cs1 (centres undefined)	-7%
CCCCCCNC(=O)c1c[nH]c2ccc(S(=O)(=O)N(C)c3ccc(C(C)C)cc3)cc2c1=O	11%
O=C(C1CCCN(Cc2ccccc2F)C1)N1CCc2ccccc2C1 (centres undefined)	-3%
C/C(N)=C(/C#N)C(=O)CSc1nc(-c2ccccc2)c(-c2ccccc2)o1	1%
C/C=C1/NN(CCCN2CCN(c3cccc(Cl)c3)CC2)C(=O)N1CCOc1ccccc1	4%
COc1ccc(OC)c(C(C)NC(=S)Nc2ccc(S(=O)(=O)Nc3ncccn3)cc2)c1 (centres undefined)	-12%
COc1ccc(OC)c(NC(=O)CSc2nc(=O)n(CCN3CCOCC3)c3c2CCCC3)c1	4%
CC1(C)CC(=O)C(CCCN2C(=O)c3ccccc3C2=O)C(=O)C1	7%
NS(=O)(=O)c1ccc(N=Cc2c(O)n(-c3nccs3)c(=O)c3ccccc23)cc1	14%
